Screening results deposited in PubChem by National Center for Advancing Translational Sciences (NCATS).
FLuc counter: qHTS profiling assay for firefly luciferase inhibitor/activator using purifed enzyme and Km concentrations of substrates (counterscreen for miR-21 project) | AID 588342, 2011 | Luciferin 4-monooxygenase (Photinus pyralis), P08659 | purified FLuc, Km substrates, luminescence inhibition | 360,000 tested, 6.9% active | Potency, µM (series often up to 57.5 µM), inactives show at the highest dose activity change, negative = inhibition, actives largely listed as inhibitors;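 further: potency means the concentration at half of the fitted maximal effect; plate controls were vehicle for no effect and reference inhibitor for full effect; nearly all actives have a fitted effect of over 55% in size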
Target sequence (P08659 whole entry, looked up): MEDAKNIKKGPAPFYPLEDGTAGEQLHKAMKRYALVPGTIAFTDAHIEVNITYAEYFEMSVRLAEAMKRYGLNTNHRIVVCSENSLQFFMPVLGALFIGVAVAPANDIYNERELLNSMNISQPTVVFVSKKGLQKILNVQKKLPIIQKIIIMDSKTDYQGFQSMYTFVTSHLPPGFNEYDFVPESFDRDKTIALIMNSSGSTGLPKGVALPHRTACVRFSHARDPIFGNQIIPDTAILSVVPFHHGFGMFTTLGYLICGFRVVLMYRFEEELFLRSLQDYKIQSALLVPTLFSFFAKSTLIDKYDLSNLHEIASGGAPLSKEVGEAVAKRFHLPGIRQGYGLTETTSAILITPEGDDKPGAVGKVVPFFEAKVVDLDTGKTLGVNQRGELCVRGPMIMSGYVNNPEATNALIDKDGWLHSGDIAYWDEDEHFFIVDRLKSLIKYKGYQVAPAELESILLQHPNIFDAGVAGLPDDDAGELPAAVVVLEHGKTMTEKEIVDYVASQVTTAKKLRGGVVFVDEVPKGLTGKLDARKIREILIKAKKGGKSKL
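Biochemical qHTS of compounds, final roughly 60 µM downward over six points, against 10 nM purified firefly luciferase using Km concentrations of substrates (10 uM D-luciferin, 10 uM ATP) in Tris acetate pH 7.5 buffer; luminescence output.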
Giardia killer: Small Molecules that selectively kill Giardia lamblia: qHTS | Giardia lamblia trophozoite viability | activity change, % at 7.66 µM, hits read low | 340,000 tested, 0.15% active; in the data active means activity change below about -80%; inconclusive means between about -30% and that limit;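 further: parasites exposed to compound for two days anaerobically before the ATP read; on the % scale 0 is the no-effect control and ±100 the full control effect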
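Luminescent ATP signal served as the viability read-out, measured 15-30 min after adding ATP detection reagent to trophozoites that had been incubated with compounds for 48 hrs at 37 deg C anaerobically at 100 cells/well.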
p53 reactivation: qHTS assay for re-activators of p53 using a Luc reporter; 320,000 tested, 0.063% active; Potency, µM (top dose mostly 92.2 µM), for the others: top-dose activity change, positive = activation, actives largely listed as activators; AID 504706, 2011; H1299 p53-A138V BP100-luciferase reporter, luminescence, 24 h; further: potency means the concentration at half of the fitted maximal effect; % of control where 0% means no effect; nearly all actives have a fitted effect of over 45% in size
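p53-null H1299 cells stably carrying temperature-sensitive p53-A138V and a BP100-luciferase reporter were pinned with compounds (4-point, 1:5 series) and held 24 hrs at 37 deg C. Luminescence was read 10 min after detection reagent.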
NPC1 prom act: qHTS Assay for NPC1 Promoter Activators; 320,000 tested, 2.4% active; AID 485313, 2010; Potency, µM (doses to about 9.22 µM), without a hit: at the top dose activation, most hits filed as activators; Huh7 NPC1 promoter luciferase reporter, 24 h;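 further: potency means the concentration at half of the fitted maximal effect; % of control where 0% means no effect; nearly all actives have a fitted effect of over 60% in size; reporter is driven by a mutant NPC1 promoter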
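Compounds in DMSO were transferred onto Huh7 NPC1-luciferase reporter cells pre-incubated 2 h; after 24 h at 37 °C, Amplite reagent was dispensed and luminescence recorded 10 min later.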
BRCA1 expr act: qHTS Assay to Identify Small Molecule Activators of BRCA1 Expression; Potency, µM (doses to about 46.1 µM), inactives show top-dose activation, actives largely listed as activators; MCF7-BRCA1-FFLuc reporter, luminescence, 48 h; response scale: scaled: vehicle 0%, 10 µM genistein 100%; 380,000 tested, 1.1% active; further: potency means the concentration at half of the fitted maximal effect; nearly all actives have a fitted effect of over 80% in size; some results filed as inactive show a strong effect at the top dose
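Reporter cells (MCF7, BRCA1 promoter-firefly luciferase) received library compounds across a concentration series for 48 h. End-point luminescence was measured and concentration-effect curves derived after normalization.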
ELG1 genotox: qHTS screen for small molecules that induce genotoxicity in human embryonic kidney (HEK293T) cells expressing luciferase-tagged ELG1. HEK293T ELG1-luciferase reporter, luminescence, 16 h. Potency, µM (series often up to 46 µM), for the others: at the top dose activity change, positive = activation, actives largely listed as activators. 330,000 tested, 1.3% active; further: potency means the concentration at half of the fitted maximal effect; % of control where 0% means no effect; nearly all actives have a fitted effect of over 60% in size
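HEK293T cells expressing luciferase-tagged ELG1 were treated with compound or DMSO for 16 hr at 37°C. Luciferase activity was then read after 30 min with ONE-Glo at room temperature; rising signal flags genetic stress.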
PKM2 act: qHTS Assay for Activators of Human Muscle isoform 2 Pyruvate Kinase | Pyruvate kinase PKM (Homo sapiens), P14618 | purified PKM2, Kinase-Glo ATP luminescence, activation; response scale: 0% is enzyme alone, no compound | Potency, µM (top dose mostly 57.5 µM), inactives show top-dose activation, actives largely listed as activators | 260,000 tested, 0.34% active | AID 1631, 2009; further: potency means the concentration at half of the fitted maximal effect; on the % scale 0 is the no-effect control and ±100 the full control effect; nearly all actives have a fitted effect of over 55% in size
Target sequence (P14618 whole entry, looked up, canonical isoform): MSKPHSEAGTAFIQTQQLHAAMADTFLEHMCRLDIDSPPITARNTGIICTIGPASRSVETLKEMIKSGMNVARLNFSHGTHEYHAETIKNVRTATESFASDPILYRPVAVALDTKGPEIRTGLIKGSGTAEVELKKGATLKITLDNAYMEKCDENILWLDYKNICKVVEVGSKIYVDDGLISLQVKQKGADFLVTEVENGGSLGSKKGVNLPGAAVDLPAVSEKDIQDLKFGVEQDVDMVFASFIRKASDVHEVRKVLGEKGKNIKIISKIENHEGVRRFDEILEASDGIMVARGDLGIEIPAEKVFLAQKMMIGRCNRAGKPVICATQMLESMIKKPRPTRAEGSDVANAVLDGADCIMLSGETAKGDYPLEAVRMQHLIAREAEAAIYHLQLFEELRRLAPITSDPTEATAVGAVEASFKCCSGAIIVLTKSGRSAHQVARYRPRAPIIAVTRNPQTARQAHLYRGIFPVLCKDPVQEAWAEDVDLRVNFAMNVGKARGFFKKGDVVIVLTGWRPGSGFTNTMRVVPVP
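Purified hPK-M2 (>95%) run at intermediate activity with 0.1 mM ADP and 0.5 mM PEP in 50 mM imidazole pH 7.2, KCl, MgCl2; 1 h room temperature. ATP formed read by Kinase-Glo luminescence; normalized to uninhibited and no-enzyme controls.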
Rab9 promoter act: qHTS Assay for Rab9 Promoter Activators. Potency, µM (series often up to 9.22 µM), for the others: at the highest dose activation, negative = inhibition, most hits filed as activators. AID 485297, 2010. 320,000 tested, 2.8% active. Huh7 Rab9 promoter-luciferase reporter, luminescence, 24 h; further: potency means the concentration at half of the fitted maximal effect; % of control where 0% means no effect; nearly all actives have a fitted effect of over 60% in size
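Luciferase signal after 10 min detection reagent at ambient indicates Rab9 promoter upregulation; stably transfected Huh7 cells were treated 24 h with compound in DMSO at 37 °C, 5% CO2.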
VP16 counter: VP16 counterscreen qHTS for inhibitors of ROR gamma transcriptional activity; 310,000 tested, 3.5% active; Potency, µM (series often up to 53.6 µM), for inactives: at the highest dose activity, negative = inhibition, usual class: inhibitors; Drosophila S2 Gal4-VP16 UAS-luciferase, luminescence, 20 h;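 further: Gal4-VP16 expression switched on by copper sulfate through the metallothionein promoter; potency means the concentration at half of the fitted maximal effect; on the % scale 0 is the no-effect control and ±100 the full control effect; nearly all actives have a fitted effect of over 50% in size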
RORgamma inh: qHTS for inhibitors of ROR gamma transcriptional activity | AID 2551, 2010 | 310,000 tested, 5.4% active | Drosophila S2 Gal4-RORgamma UAS-luciferase reporter, 20 h | Potency, µM (series often up to 53.6 µM), inactives show top-dose activity change, negative = inhibition, actives largely listed as inhibitors; further: potency means the concentration at half of the fitted maximal effect; on the % scale 0 is the no-effect control and ±100 the full control effect; nearly all actives have a fitted effect of over 60% in size
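A Gal4/UAS one-hybrid system in insect cells: metallothionein-promoter Gal4–ROR gamma fusion plus Photinus luciferase reporter. Copper sulfate 700 uM final, 20 hr ambient incubation, luminescent detection after 10 min with reagent.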
The depositor's hits bear a star; u = inconclusive; x = no result given; [ ] = dose if it differs, or a comment. Unless noted, the call rests on the fitted dose curve; in most records, active means well fitted curve in the direction sought with a large enough effect; inconclusive means small, poorly fitted or top-dose-only effect, or another doubt; inactive means no such curve, though single readings can be large; an effect the other way counts as inactive or inconclusive.

SMILES | FLuc counter | Giardia killer | p53 reactivation | NPC1 prom act | BRCA1 expr act | ELG1 genotox | PKM2 act | Rab9 promoter act | VP16 counter | RORgamma inh
CC(/C=C/c1cccc([N+](=O)[O-])c1)=N\NC(=O)c1ccncc1 | 2% | 2 | 13% | 0% | -37% | 0% | -1% | 2% | 10µM* | 5µM*
COc1ccc(CNS(=O)(=O)c2ccc3c(c2)CCN3C(=O)C2CCC2)cc1 | 4% | 8 | -10% | -5% | -8% | -2%[9.26 µM] | x | 0% | 1% | 15%
N/C(=N\N=C\c1cccc(O)c1)c1nonc1N | 1.9µM* | 10 | -7% | u | u | u | -45% | u | u | u
CCOc1ccccc1NS(=O)(=O)c1c[nH]c(C(=O)OC)c1 | -2% | u | x | -9% | 4% | 2% | 1% | -4% | 0% | -1%
CNC(=O)/C=C/c1cccc(C(F)(F)F)c1 | 3% | 12 | 5% | -1% | 2% | 1% | 1% | 7% | -1% | 17%
COc1ccc(OC)c(NC(=O)CCN2CCN(c3ccccc3OC)CC2)c1 | -1% | -10 | x | -4% | 4% | -4% | -1% | -5% | 1% | -14%
CCN(CC)CCn1c(=S)[nH]c2ncccc2c1=O | 9% | -3 | 1% | -2% | 0%[1.84 µM] | 1% | -3% | -4% | 7% | 15%
Cc1ccc(OCc2nnc(SCC(=O)Nc3ccc4c(c3)OCO4)n2C)cc1 | -4% | -17 | 2% | 0% | 1% | 2% | -4% | 3% | x | 5%[0.365 µM]
CCOc1ccc(CCNC(=O)Nc2ccccc2C)cc1OCC | 0% | -3 | 0% | -3% | -27% | -3% | x | -2% | -5% | -8%
CC(NC(=O)C1c2ccccc2Oc2ccccc21)C1CCCO1 (centres undefined) | 0% | -8 | 7% | -6% | -7% | 2% | 12% | -7% | -1% | 0%
COc1cccc(CSc2nnc(-c3ccncc3)n2C)c1 | -1% | -2 | x | -1% | -3% | 1% | 3% | 0% | 1% | 8%
O=C(Cc1ccccc1)NC(NC(=S)Nc1cc(Cl)ccc1Cl)C(Cl)(Cl)Cl (centres undefined) | 0% | -5 | -6% | -1% | 2% | 1% | 0% | 7% | u | u
O=C(NCCSc1ccccc1)c1ccc(Br)cc1 | 1.3µM* | -8 | u | 0.79µM* | u | 3.3µM* | 3% | 0.56µM* | u | u
Nc1nc(-c2ccc(Cl)cc2)nnc1-c1ccc(Br)cc1 | u | -16 | 7% | 1.8µM* | u | u | -5% | 1.1µM* | -4% | -7%
COc1ccc(NC(=O)C(c2cc3c(cc2[N+](=O)[O-])OCO3)N(C)C)cc1 (centres undefined) | -1% | -18 | 5% | 1% | 0% | 5% | -4% | -2% | 0% | -11%
O=C(NCC1CCCO1)C1c2ccccc2Oc2ccccc21 (centres undefined) | 0% | 2 | 0% | -3% | -13% | -6% | 0% | 3% | 1% | -1%
C/C(CC(=O)NCC(C)C)=N\NC(=O)COc1cc(C)c(Br)cc1Br | 4% | -21 | -4% | -2% | -31% | -1% | 11% | 0% | -27% | -25%
N=c1c2c(-c3ccccc3)c(-c3ccccc3)n(Cc3ccccc3)c2ncn1CCO | -3% | 3 | -12% | -22% | -76% | -2% | -1% | -28% | -13% | 7%
Cc1ccc(NC(=O)CSc2ccc(-c3ccco3)nn2)cc1 | u | -9 | -1% | -1% | 6% | -4% | 9% | -9% | 14% | 22%
O=C(CN1C(=O)c2ccccc2C1=O)Nc1ccc(-c2nc3ccccc3o2)cc1 | -11% | -4 | 16% | 5% | 8% | -1% | -1% | -1% | -2% | -3%
CCN(CC)c1nc(Oc2ccc(C(=O)NN)cc2)nc(Oc2ccc(C(=O)NN)cc2)n1 | 1% | -6 | -2% | -4% | -41% | 1% | x | 6% | -5% | -21%
COc1ccc(-c2nnc(SC)o2)c(OC)c1 | u | -5 | 4% | 13% | 54% | u | 2% | 23% | -7% | 1%
COc1ccc(NC(=O)c2sc(N)nc2-c2ccccc2)cc1 | -6% | -5 | -5% | 0% | -32% | 1% | x | 0% | 10% | 6%
Cc1cc(C)cc(OCC(=O)Nc2ccc3c(c2)OCO3)c1 | -4% | 35[activator] | 0% | -2% | 25% | -1% | 4% | -4% | 3% | 21%
CSc1nc(N(C)C)nc(N2CC(=O)N(CCNS(=O)(=O)c3ccc(C)cc3)C2=N)n1 | 0% | 18 | -7% | -1% | -4% | 1% | -2% | -2% | -13% | u
CC1=C(C(=O)Nc2cc(C)ccn2)C(c2ccc(C)cc2)C2=C(CCCC2=O)N1 (centres undefined) | 4% | 14 | -3% | -2% | 10% | 13% | -5% | -7% | 9% | u
Cc1c(C(=O)Nc2ccc(Cl)cc2)c2ccccn2c1C(=O)c1ccc([N+](=O)[O-])cc1 | 2% | 13 | 4% | -2% | -6% | 2% | -7% | -1% | 1% | 0%
O=c1c2ccccc2nc(-c2ccccc2)n1Cc1ccco1 | 3% | 4 | 1% | -3% | 1% | 5% | 3% | 3% | 12% | 33%
O=C(Nc1nc2ccccc2[nH]1)c1ccccc1O | 2.7µM* | -26 | 20% | 1.8µM* | u | u | x | 0.89µM* | 6.3µM* | 13µM*
CCOC(=O)C1=C(c2ccccc2)NC(SCC(=O)Nc2ccccc2C)=C(C#N)C1c1ccco1 (centres undefined) | 0% | 3 | -11% | 1% | -64% | -19% | -14% | -6% | x | -25%[0.365 µM]
Cc1ccc(OCC(=O)Nc2sc3c(c2C#N)CCC3)cc1 | 4.8µM* | -2 | u | u | u | u | 2% | u | 3% | 18%
CC(Sc1n[nH]c(N)n1)C(=O)C12CC3CC(CC(C3)C1)C2 (centres undefined) | -9% | -15 | -1% | 0% | -18% | 3% | 1% | -6% | -8% | 4%
CCCc1cnc(N2CCN(C(=O)c3ccc(F)cc3)CC2)nc1 | -1% | 17 | 16% | 2% | -14% | -6% | x | -2% | 0% | 17%
CC(=O)Nc1ccc(-c2csc(-c3cccnc3)n2)cc1 | 7.6µM* | 2 | x | 2.8µM* | u | 6.5µM* | -4%[11.5 µM] | u | u | u
COC(=O)c1c(CCl)noc1C(=O)NC(C)C | 7% | 5 | 18% | -4% | -36% | 5% | -2% | -12% | -2% | -27%
N#Cc1ccccc1Cn1c(=O)n(CCC(=O)NCc2ccco2)c(=O)c2ccccc21 | 2% | 3 | -3% | 0% | -19% | -7% | -6% | 0% | -2% | -1%
Cc1ccc(OCC(=O)Nc2ccc3c(c2)OCO3)cc1C | 24µM* | -17 | 3% | 5% | -14% | 8% | -3% | 16% | -4% | 7%
CCOc1cc(/C=C2/NC(=O)N(CC(=O)Nc3cccc(C)c3)C2=O)ccc1O | 1% | 0 | 4% | -14% | -43% | 8% | 1% | 2% | -7% | -12%
COc1ccc(C(=O)/C=C2/C(=O)Nc3ccccc32)cc1OC | -14% | 8 | 1% | -1% | -57% | 7% | x | -1% | u | u
CC(c1ccccc1)C1CC(=O)N(C2CCCCC2)C1=O (centres undefined) | 6% | -18 | 1% | 0% | 1%[1.84 µM] | -4% | -9% | 13% | -2% | u
CN(C)CCn1c(=S)[nH]c2ncccc2c1=O | 0% | 5 | 1% | -1% | 0% | -1% | 7% | 0% | -12%[10 µM] | -5%
O=C(NC(NC(=S)Nc1ccccc1C(=O)O)C(Cl)(Cl)Cl)c1cccc([N+](=O)[O-])c1 (centres undefined) | -12% | u | -1% | 0% | 0% | -3% | -4% | 0% | -7% | -9%
COc1cc2c(cc1OC)CN(C(=O)CCOc1ccccc1)CC2 | -1% | -3 | -3% | 1% | -33% | -3% | x | -3% | -20% | -12%
COc1cccc(CN2CCN(Cc3cccc(Oc4ccccc4)c3)CC2)c1OC | -3% | 5 | 1% | 2% | -1% | -3% | x | -6% | -3% | 7%
Cc1ccc(NC(=O)COc2ccc(/C=C3/NC(=O)NC3=O)cc2)cc1 | -6% | -5 | -11% | 0% | -16% | 5% | 1% | 0% | -4% | 13%
Cn1c(SCC(=O)NC2CC2)nnc1C(F)(F)F | 3% | -13 | 5% | -6% | 0% | 0% | -1% | -1% | 16% | -21%
O=C(Nc1cccc(O)c1)C(Cc1ccccc1)N1C(=O)c2cccc3cccc(c23)C1=O (centres undefined) | 1% | 11 | 1% | 5% | -37% | 5% | -5% | -3% | -11% | 4%[10 µM]
CN(Cc1ccco1)C(=O)Cn1nc(-c2ccc(Cl)cc2)ccc1=O | 3% | 0 | -5% | -1% | 10% | -3% | 2% | -3% | -1% | 28%

Only part of the results is shown; count on the stated rates, not on these rows.
